Screening data as filed in PubChem BioAssay.
Arbovirus inh: antivirals against arbovirus infection | AID 1251 | arbovirus infection cell-based antiviral screen | hit rate 0.37% among 200,000 | inhibition, % at 10 µM;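 active = inhibition from about 30%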;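 note: bluetongue infection of BSR cells; cell survival read as ATP light after 72 h; 0% = infected wells without compound and 100% = uninfected wells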
Mtb growth: M. tuberculosis H37Rv growth inhibitors, H37Rv strain (AID 1626) | inhibition, % at 10 µM; hits with a dose series show IC50 in µM | hit rate 0.95% among 220,000 | M. tuberculosis H37Rv growth inhibition; higher % means a stronger effect;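 active = confirmed in a dose series; inconclusive = inhibition above 80% but not taken into the dose series; inactive = below 80% or under 30% at every dose of the series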;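 note: bacteria incubated seven days before Alamar blue readout; 0% = bacteria only wells and 100% = bacteria with antibiotic wells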
RecA splice inh: blocks M. tuberculosis RecA intein splicing; P9WHJ3; cell-free RecA intein splicing, fluorescence; inhibition, %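 (about 9 µM by stock and volumes)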; hit rate 0.75% among 290,000; AID 2221; in the data active = inhibition above about 30%; inconclusive = no clear call, values can overlap the other calls;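 note: 0% = vehicle wells and 100% = reference inhibitor control wells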
Target sequence (P9WHJ3 whole entry, looked up, canonical isoform): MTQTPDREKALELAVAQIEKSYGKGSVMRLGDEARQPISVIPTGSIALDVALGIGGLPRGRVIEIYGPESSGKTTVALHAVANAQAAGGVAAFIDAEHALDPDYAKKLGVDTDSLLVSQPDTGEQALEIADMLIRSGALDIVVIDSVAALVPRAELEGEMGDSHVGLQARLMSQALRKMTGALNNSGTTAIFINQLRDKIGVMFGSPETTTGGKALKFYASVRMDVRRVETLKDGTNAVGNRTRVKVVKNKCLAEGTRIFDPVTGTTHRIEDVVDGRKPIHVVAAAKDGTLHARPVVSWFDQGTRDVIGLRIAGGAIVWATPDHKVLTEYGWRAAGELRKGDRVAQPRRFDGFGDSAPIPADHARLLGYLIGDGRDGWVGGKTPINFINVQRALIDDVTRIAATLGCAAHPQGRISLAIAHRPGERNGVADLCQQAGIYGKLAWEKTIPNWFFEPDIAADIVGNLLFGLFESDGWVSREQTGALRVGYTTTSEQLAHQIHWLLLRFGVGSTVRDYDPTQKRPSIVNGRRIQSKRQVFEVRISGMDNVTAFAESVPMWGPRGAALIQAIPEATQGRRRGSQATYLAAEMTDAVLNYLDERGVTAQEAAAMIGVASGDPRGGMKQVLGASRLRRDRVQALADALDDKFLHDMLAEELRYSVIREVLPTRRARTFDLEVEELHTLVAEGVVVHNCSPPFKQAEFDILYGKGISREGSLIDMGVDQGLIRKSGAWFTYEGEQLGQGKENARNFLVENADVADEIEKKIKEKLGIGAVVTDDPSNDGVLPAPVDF
Mtb betalactam: beta-lactam sensitization of Mtb H37Rv; M. tuberculosis H37Rv growth with meropenem, percent inhibition; hits of this screen are not shown here; inhibition, % at 25 µM; hit rate 0.27% among 330,000; AID 434955;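 active = about 74% or more and at least 40 points above the plate without the antibiotic, then above 30% in a dose series; inconclusive = first-round hits that could not be retested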;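 note: growth measured after seven days incubation then overnight dye step; 0% = bacteria only wells and 100% = bacteria with antibiotic; twin plates without the antibiotic show which effects depend on it; some results filed as inactive read as strong as hits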
YopH PTP inh: YopH (Yersinia) phosphatase inhibition; fluorescence Ex485/Em525; inhibition, %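 (about 10 µM by stock and volumes)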; hit rate 0.16% among 140,000; AID 898;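 active = inhibition of 50% or more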;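 note: controls were vehicle for no effect and minimum signal wells for full effect; inactives centre near -20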
Arbovirus inh repeat: further read-out of Arbovirus inh, marked with its call; inhibition, %; measured here: 10K subset replicate screen; many hits read low in the repeat;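 first of two repeat runs on a subset; 0% = infected and 100% = uninfected wells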
Numbers without * were called inactive; ? = inconclusive; · = not tested or not shown.

SMILES | Arbovirus inh | Mtb growth | RecA splice inh | Mtb betalactam | YopH PTP inh | others
Cc1cc(Br)ccc1NC(=O)C1CCN(S(=O)(=O)c2cnc[nH]2)CC1 | · | · | 0.9 | 2 | ·
CC(O)CN1CCN(C(=O)CN2C(=O)NC(c3ccccc3)(c3ccccc3)C2=O)CC1 (centres undefined) | · | · | 1.4 | 1 | ·
COc1cc(Cl)ccc1OCc1cc(C(=O)NCCCN2CCCC2=O)no1 | · | · | -2.4 | 5 | ·
C[n+]1ccn(CC(=O)c2ccc(Cl)cc2)c1 | 5 | -4% | -0.2 | -7 | -24
CC1CCN(C(=O)Cn2nnc(-c3ccc(C(C)C)cc3)n2)CC1 | · | · | -1.2 | 5 | ·
CC(C)C(=O)NC(=S)Nc1ccc(S(=O)(=O)NC(C)(C)C)cc1 | -3 | -4% | -2.4 | -2 | 11
CC(C)CC(=O)NC(=S)NCc1ccccc1 | -8 | 10% | -1.1 | 7 | -18
CCN(CC)S(=O)(=O)c1cc(NC(=O)c2ccc(Br)s2)ccc1C | -2 | -1% | -1.5 | -5 | ·
O=C(NCc1cccnc1)c1ccc(NS(=O)(=O)c2ccc(F)cc2)cc1 | · | · | 1.5 | -12 | ·
CNCC[C@@H](Oc1ccccc1C)c1ccccc1 | · | -10% | -1.0 | -1 | ·
COc1cc(C(=O)Nc2ccc3c(c2)Cc2cc(NC(=O)c4cc(OC)c(OC)c(OC)c4)ccc2-3)cc(OC)c1OC | -35 | -4% | -1.0 | 5 | 4
N#Cc1ccc(NC(=O)N2CCC(c3nc4c(nnn4Cc4cccc(Cl)c4)c(=O)[nH]3)CC2)cc1 | -2 | 69% | 4.8 | 84 | -26
COc1ccc(C)cc1NC(=O)CN(C)S(=O)(=O)c1cccs1 | -1 | 6% | 7.4 | -7 | -5
O=C(Nc1cccc(F)c1)c1cc(S(=O)(=O)NCCC2=CCCCC2)ccc1F | 15 | 3% | -1.2 | 1 | -23
COc1cccc(N(C(=O)C2CSC(=O)C2)C(C(=O)NC(C)(C)C)c2ccncc2)c1 (centres undefined) | -2 | -7% | 14 | 0 | ·
CCCc1ccc(-c2cc(N)n[nH]2)cc1 | -14 | -2% | 3.3 | -7 | -19
O=C1N(CN2CCOCC2)c2ccccc2C12OCC(CCl)O2 (centres undefined) | · | · | 3.5 | 19 | ·
Cc1cnc(NC(=O)c2cncc(Br)c2)s1 | 6 | 6% | -1.5 | -7 | ·
CC(C)=NNc1nc2c(c(=O)[nH]c(=O)n2C)n1CCc1ccccc1 | 0 | 4% | -7.9 | 5 | ·
CCOC(=O)C1NN=C(C(=O)c2ccccc2)C1c1ccccc1 (centres undefined) | 8 | 1% | 1.1 | 5 | -23
Cc1cc(C)n(C(C)Sc2ccccc2)n1 (centres undefined) | · | · | 1.0 | -5 | ·
COc1cccc(-n2c(CN3CCN(Cc4ccccc4)CC3)nc3ccc([N+](=O)[O-])cc3c2=O)c1 | -7 | 7% | -2.3 | 1 | -33
Cc1ccc(NC(=O)C(C)NC(=O)OCc2ccccc2)cc1C (centres undefined) | · | 0% | -0.9 | 0 | ·
Cn1nc(OC(=O)Nc2ccc(Cl)cc2)cc1C(F)(F)F | -7 | -8% | -2.3 | 0 | -8
Cc1ccc2[nH]c(-c3cccc(F)c3)cc(=O)c2c1 | -8 | -5% | 0.1 | 2 | -38
More structures follow.
SMILES | Arbovirus inh | Mtb growth | RecA splice inh | Mtb betalactam | YopH PTP inh | others
COc1ccccc1C(=O)Nc1ccc(NC(=O)C2CCCCC2)nc1 | · | · | 8.2 | 1 | ·
Cc1[nH]c2ccc(C(=O)OCC(=O)NC3(C#N)CCCCC3)cc2c1C | · | · | -0.3 | -10 | ·
O=C(O)CC/C(=N\Nc1ccccc1[N+](=O)[O-])c1cccs1 | · | · | 3.2 | 3 | ·
CCOC(=O)/C(C#N)=C\C1=C(N2CCCC2)CC(C)(C)OC1 | 5 | -4% | 5.2 | -2 | -15
COc1ccc(-n2nc(C(=O)NCC(=O)N(C)Cc3ccccc3)c3ccccc3c2=O)cc1 | · | · | 1.5 | 9 | ·
O=C(CSc1nnc(-c2ccccc2)o1)Nn1cnnc1 | 8 | -3% | -0.9 | · | -29
CN1CCC(O)(c2ccc(Cl)cc2)C(C(=O)c2ccc(Cl)cc2)C1 (centres undefined) | -3 | ? | 1.2 | 100 | ·
O=C(O)c1cccc(NC(=S)NC(NC(=O)c2cccc([N+](=O)[O-])c2)C(Cl)(Cl)Cl)c1 (centres undefined) | · | -1% | -4.8 | -2 | ·
CCC(CC)C(=O)c1c[nH]c(C(=O)NCC2CCCO2)c1 (centres undefined) | 1 | 4% | 11 | -3 | -46
Brc1ccc(C2=Nn3c(Cn4nnc5ccccc54)nnc3SC2)cc1 | · | -3% | 4.9 | -2 | ·
Oc1ccc(Nc2ncnc3c2oc2ccccc23)cc1 | · | · | -0.8 | -10 | ·
CCOC(=O)c1ccccc1NC1CC(=O)N(c2ccccc2C)C1=O (centres undefined) | 5 | -4% | -1.6 | -9 | 3
COCCN(C(=O)CSc1nnc(C)n1Cc1ccccc1)c1c(N)n(Cc2ccccc2)c(=O)[nH]c1=O | 16 | 1% | -0.2 | 0 | ·
COc1ccc(CCNC(=O)CN2C(=O)c3ccccc3C2=O)cc1 | 0 | -13% | 1.6 | 0 | -16
COC(=O)C(NS(=O)(=O)c1cccc(S(=O)(=O)NC(C(=O)OC)c2ccccc2)c1)c1ccccc1 (centres undefined) | · | · | 1.0 | -1 | ·
COCCSc1ccccc1C(=O)Nc1cc(C)cc(C)c1 | 8 | 8% | 2.1 | 0 | ·
CCOC(=O)N1CCN(CC(=O)Nc2nc3ccc(OC)cc3s2)CC1 | · | · | -1.0 | 5 | ·
CCc1oc2c(C)c(O)ccc2c(=O)c1-c1ccc2ccccc2n1 | -3 | 7% | · | -9 | -3
Cc1ccc(-n2c(CNc3ccc(F)cc3)nnc2SCC(=O)N2CCOCC2)cc1 | 6 | 4% | 1.0 | 3 | -7
CCOCCOC(=O)c1cccc(NC(=O)OCC)c1 | -5 | -3% | 0.5 | -10 | -36
CCn1nnc(-c2ccccc2NS(=O)(=O)c2ccc(S(=O)(=O)N3CCCCCC3)cc2)n1 | 9 | 1% | 0.0 | -2 | -28
O=C(Cn1nnc2ccccc2c1=O)N1CCOCC1 | 1 | -1% | -4.1 | -6 | ·
Cc1ccc(O)c(C(=O)c2cnn(C(=O)COc3ccccc3C#N)c2)c1 | · | 8% | 0.3 | -4 | ·
Cc1cc(OC(=O)c2c(F)cc(F)cc2F)nc(C)n1 | 9 | 0% | 4.3 | 6 | ·
O=C1OC(Nc2ccc(F)cc2F)c2ccccc21 (centres undefined) | 3 | -3% | 1.6 | 0 | -49
(list continues)
SMILES | Arbovirus inh | Mtb growth | RecA splice inh | Mtb betalactam | YopH PTP inh | others
CCOc1ccc(C(=O)O/N=C(\N)c2ccccn2)cc1OCC | · | · | 1.6 | 26 | ·
CC1=NN(S(=O)(=O)c2ccc(Cl)cc2Cl)C(=O)c2ccccc2O1 | · | · | 1.5 | 6 | ·
COc1cc2[nH]c(=O)n(CCCCCC(=O)N3CCN(c4ccccn4)CC3)c(=O)c2cc1OC | -4 | -6% | -7.7 | 2 | -29 | Arbovirus inh repeat=-1
CS(=O)(=O)N1CCN(S(=O)(=O)c2ccccc2[N+](=O)[O-])CC1 | 3 | 2% | -10 | -4 | ·
CNC(=O)c1nc(C)c(C2(C)CC(c3cccc([N+](=O)[O-])c3)=NO2)s1 (centres undefined) | · | -5% | -8.2 | -11 | ·
C=C1CCC[C@]2(C)C[C@H]3OC(=O)C(CNC(C)CCCC(C)C)[C@H]3CC12 (some centres undefined) | · | · | 6.0 | 92 | ·
COc1ccc(N(CC(=O)NCCc2ccc(S(N)(=O)=O)cc2)S(=O)(=O)c2c(C)noc2C)cc1 | · | · | -1.3 | -7 | ·
CC1CCCCN1CCCNc1ccc(C(CC(N)=O)NC(=O)Cc2ccc(Cl)cc2)cc1[N+](=O)[O-] (centres undefined) | · | · | 1.7 | 3 | ·
CN(C)c1ccc(C(=O)c2ccccc2C(=O)O)c(O)c1 | 11 | 7% | 1.4 | 10 | -14
CC(=O)Nc1nc(CC(=O)c2ccccc2)cs1 | -3 | 3% | 0.2 | 7 | · | Arbovirus inh repeat=0
Cc1ccc(S(=O)(=O)N2CCC(C(=O)N[C@@H](C)C(=O)Nc3ccc4c(c3)OCO4)CC2)cc1 | -14 | -8% | 16 | 8 | -26
O=C(CN(c1ccccn1)S(=O)(=O)c1ccccc1)Nc1ccccc1 | 3 | · | -0.6 | -7 | ·
Brc1ccc(CSc2ncn[nH]2)cc1 | 6 | 46µM* | 4.5 | 98 | -19 | Arbovirus inh repeat=7
COc1ccc(-n2nnnc2SCC(=O)N2CCCc3ccccc32)cc1OC | -8 | 2% | -0.6 | -5 | -26
Cc1ccc(S(=O)(=O)N2c3ccccc3CC2C)cc1 (centres undefined) | -12 | 1% | 5.5 | -6 | ·
COc1ccccc1C(=O)Nc1ncc2c(n1)CC(c1ccco1)CC2=O (centres undefined) | -3 | -4% | 3.1 | 5 | -43
COCCN(C/C=C/c1ccccc1)C/C=C/c1ccccc1 | · | · | 3.3 | 2 | ·
O=C(CSc1nnc(CCc2nc3ccccc3[nH]2)n1-c1ccccc1)NCc1ccccc1 | -2 | -2% | -0.6 | -13 | 15
COc1cc(SC)ccc1C(=O)Nc1ccon1 | 1 | -2% | 6.2 | -2 | -25
CCNC(=O)c1ccccc1NC(=O)c1cccc(S(=O)(=O)N2CCC(C)CC2)c1 | -16 | 8% | -3.1 | -12 | 8
Cc1cc(-n2c(SCC(=O)NCc3cccs3)nc3n[nH]c(C)c3c2=N)ccc1Cl | -8 | -10% | 1.4 | -6 | -32
COc1ccc(Br)cc1C(=O)O | -4 | 4% | · | 4 | 12
Cc1nc(/N=C(\N)NC(=O)N2c3ccccc3Sc3ccccc32)nc2ccccc12 | 6 | ? | -1.9 | 68 | -24
CSc1ccccc1NC(=O)C1=CC(c2ccc(C)cc2)=NS(=O)(=O)N1C | · | · | 6.1 | 0 | ·
O=C(Nc1ccc(Cl)cc1)Nc1ccccn1 | · | · | 4.1 | 4 | ·

In the list so far, these have a furan ring, fused or not:
SMILES | Arbovirus inh | Mtb growth | RecA splice inh | Mtb betalactam | YopH PTP inh | others
Oc1ccc(Nc2ncnc3c2oc2ccccc23)cc1 | · | · | -0.8 | -10 | ·
COc1ccccc1C(=O)Nc1ncc2c(n1)CC(c1ccco1)CC2=O (centres undefined) | -3 | -4% | 3.1 | 5 | -43

Additional compounds follow:
SMILES | Arbovirus inh | Mtb growth | RecA splice inh | Mtb betalactam | YopH PTP inh | others
CCOC(=O)CNc1cccc(C(F)(F)F)c1 | 3 | -2% | -3.4 | -5 | ·
O=C/C(=C\Nc1ccccn1)c1nc2ccccc2o1 | 1 | -6% | -31 | -9 | -25
COc1ccc(CNC(=O)C2CCN(S(=O)(=O)c3ccc4c(c3)NC(=O)C(C)S4)CC2)cc1 (centres undefined) | · | · | 0.8 | 3 | ·
O=C(N/C(=C/c1ccc(Br)cc1)C(=O)N1CCOCC1)c1ccc(Br)o1 | · | · | -1.4 | 10 | ·
COc1ccc(/C=N/c2oc(-c3ccccc3)cc2C#N)cc1OC | -15 | 7% | -1.6 | -5 | -13
COc1ccccc1-c1cc(N)n[nH]1 | -2 | -10% | 5.6 | -3 | -51
COc1ccccc1OCC(=O)NCC(C)NC(=O)COc1ccccc1OC (centres undefined) | · | · | -1.4 | 4 | ·
Cc1ccc(NC2c3ncccc3C(=O)N2Cc2cccs2)cc1C (centres undefined) | -8 | 20% | 17 | -3 | ·
Cc1ccccc1NC(=S)NCc1ccc(F)cc1 | · | · | 0.0 | -2 | ·
Cc1ccc(C(=O)CNc2cc(C)ccc2C)cc1 | · | · | -1.3 | 6 | ·
CC1(C)C(=O)Nc2ccccc2N1C(=O)CN1C(=O)c2ccccc2C1=O | 4 | -8% | 2.5 | -4 | -16
Cc1ccc(S(=O)(=O)NCC(=O)N(CCc2ccccc2)CC(=O)NCc2ccco2)cc1 | 6 | 3% | -0.1 | · | -14
Cc1sc(NC(=S)NC(=O)c2ccc(C(C)(C)C)cc2)c(C#N)c1C | 10 | 4% | -0.4 | -5 | -16
O=C(Nc1cccc(CCc2ccccn2)c1)c1cc(F)c(F)cc1Cl | -3 | 0% | 11 | -3 | -29
O=S(=O)(c1ccc(OC(F)(F)F)cc1)N1CCC(O)(c2cccc(C(F)(F)F)c2)CC1 | · | · | 0.7 | 1 | ·
NC(=O)C1CCN(C(=O)CCC(=O)c2ccc(F)cc2)CC1 | · | · | -0.4 | 5 | ·

Some of the compounds tested; count on the stated rates, not on these rows.
